# Assay outcomes deposited in PubChem BioAssay by several laboratories.
# PrP 5UTR inh – inhibition of PrP 5' UTR reporter expression; cell-based PrP 5' UTR mRNA reporter, plate reader; 0.35% of 340,000 active; inhibition, % (test concentration not listed);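 active = every replicate at 50% or more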;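 also: 0 = median of the neutral control wells; tested in H4 reporter cells; numbers are from one replicate; inactives centre near -14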
# Sa ugtP lethal – growth inhibition of ugtP-null S. aureus, primary screen, RN4220 ugtP deletion, OD600; 16 h; some inactives read as strong as hits; growth inhibition, % (concentration not given with the values); 0.54% of 330,000 active; AID 1259309, 2017;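 active = z-score under -3 and OD600 up to 0.15 on both plates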;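 also: plate controls were untreated wells for no effect and antibiotic for full effect; wells of about 80 µL received 100 nL stock; the first replicate is given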
# BJeLR viability – MLPCN primary cell-based screen for lethality selective to Ras in HRASV12 cells; BJeLR (HRASV12) viability, CellTiter-Glo ATP luminescence, 48 h; reference of the scale not given here; inhibition, % (test concentration not listed); 0.17% of 300,000 active; AID 1554, 2009;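 active = replicate mean above 50%; inconclusive = above 50% but judged a plate artefact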;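 also: 50 nL library stock added to about 25 µL; numbers are from one replicate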
# Mtb hypoxia rep – PubChem AID 1159583. 0.1% of 300,000 active. fluorescence inhibition, % (concentration not given with the values). M. tuberculosis hypoxia-regulated fluorescent reporter, fluorescence;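 active = 35 to 45% if threefold the growth effect, above 45% if 1.5-fold the growth effect; inactive = the rest, general growth blockers included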;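 also: wells of about 50 µL received 100 nL stock; 0% = vehicle wells and 100% = reference inhibitor wells; whole bacteria with a GFP reporter of the hypoxia response; strong numbers were not always called active; many hits fall short of the cut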
# RN4220 kill – growth inhibition of S. aureus RN4220, primary screen, OD600. 16 h. 0.33% of 330,000 active. inhibition, % (test concentration not listed). AID 1259311, 2017;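 active = z-score of -3 or lower and OD600 up to 0.18 on both plates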;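 also: plate controls were untreated cells for no effect and reference antibiotic for full effect; stock transfer was 100 nL into about 80 µL; one replicate is shown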
# Autofluor counter – compound fluorescence in toxin protease inhibitor counterscreen. compound autofluorescence counterscreen, microsphere flow cytometry; active compounds read high. AID 624483. fluorescence intensity (test concentration not listed). 3.1% of 360,000 active;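 active = at least 3 SD above the mean of all compounds, about 16000 in these data; inconclusive = too few beads counted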;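 also: 100 nL of 1 mM stock went into each well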
# Mtb hypoxia rep growth – further read-out of Mtb hypoxia rep, marked with its call; growth inhibition, %; measured here: M. tuberculosis growth (absorbance);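 0% = vehicle and 100% = reference antibiotic; read after six days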
# * = called active by the depositor; ? = inconclusive; . = not tested or not shown.
# The first 15 entries (preview)
# Every second line gives: PrP 5UTR inh	Sa ugtP lethal	BJeLR viability	Mtb hypoxia rep	Mtb hypoxia rep growth	RN4220 kill	Autofluor counter
- Cc1[nH]nc(Nc2ccc(O)cc2)c1[N+](=O)[O-]
→ 4	5	4	15	3	2.4	3949
- N#CCOc1ccc(C2=NO[C@@H]3[C@@H]4C[C@@H]([C@H]5C(=O)N(c6ccc7c(c6)OCO7)C(=O)[C@@H]45)[C@H]23)cc1
→ -23	-3	6	10	10	4.3	2456
- FC(F)(F)c1ccnc(N2CCN(Cc3cnc(-c4ccccc4)[nH]3)CC2)c1
→ -14	2	1	14	0	3.4	4577
- Cc1ccccc1OCC(=O)NN=C/C=C/c1ccccc1
→ .	2	.	9	1	2.5	.
- Cc1ccnc(-n2c(CCN3C(=O)c4ccccc4C3=O)nc3ccccc3c2=O)c1
→ -37	-3	-13	-4	-6	1.2	4137
- O=S(=O)(c1ccc2c(c1)CCCC2)N1CCNCC1
→ -17	9	.	6	2	3.7	2894
- CNS(=O)(=O)c1ccc(Cl)nc1
→ -14	4	7	2	5	2.4	2412
- CCCCN(Cc1ccco1)C(=O)Cn1ncc2c(=O)oc3ccc(C)cc3c21
→ -8	-10	-9	4	15	-7.2	5446
- CC(C)CNS(=O)(=O)c1ccc(S(=O)(=O)N2CCC3(CC2)OCCO3)cc1
→ -24	5	-3	-2	-5	11	6776
- N#Cc1c(-c2ccccc2Cl)noc1/C=C/Nc1ccc(C(=O)O)cc1
→ -18	42	12	2	5	6.7	2455
- COc1ccc(CNC(=O)CN2C(=O)NC(C)(c3cccc(Br)c3)C2=O)cc1 (stereo unspecified)
→ -13	7	0	3	2	-2.0	3901
- C=CCn1c(O)c(C(CC)=NCCN2CCN(C(=S)NC)CC2)c(=O)[nH]c1=O
→ -33	2	2	-2	6	1.9	3701
- O=c1c(C(c2ccccc2)c2c(O)nc3n(c2=O)CCS3)c(O)nc2n1CCS2
→ -11	1	13	2	-1	2.5	2224
- CC(C)(C)C(=O)NCCN1CCN(C(=O)C(C)(C)C)CC1
→ 3	-6	-25	2	3	-2.3	3984
- C/C(=N/NC(=O)CNC(=O)CCc1ccccc1)c1ccc(Cl)c(Cl)c1
→ -13	.	3	.	.	.	5994

# This part in full, from the start:
# Every second line gives: PrP 5UTR inh	Sa ugtP lethal	BJeLR viability	Mtb hypoxia rep	Mtb hypoxia rep growth	RN4220 kill	Autofluor counter
- Cc1[nH]nc(Nc2ccc(O)cc2)c1[N+](=O)[O-]
→ 4	5	4	15	3	2.4	3949
- N#CCOc1ccc(C2=NO[C@@H]3[C@@H]4C[C@@H]([C@H]5C(=O)N(c6ccc7c(c6)OCO7)C(=O)[C@@H]45)[C@H]23)cc1
→ -23	-3	6	10	10	4.3	2456
- FC(F)(F)c1ccnc(N2CCN(Cc3cnc(-c4ccccc4)[nH]3)CC2)c1
→ -14	2	1	14	0	3.4	4577
- Cc1ccccc1OCC(=O)NN=C/C=C/c1ccccc1
→ .	2	.	9	1	2.5	.
- Cc1ccnc(-n2c(CCN3C(=O)c4ccccc4C3=O)nc3ccccc3c2=O)c1
→ -37	-3	-13	-4	-6	1.2	4137
- O=S(=O)(c1ccc2c(c1)CCCC2)N1CCNCC1
→ -17	9	.	6	2	3.7	2894
- CNS(=O)(=O)c1ccc(Cl)nc1
→ -14	4	7	2	5	2.4	2412
- CCCCN(Cc1ccco1)C(=O)Cn1ncc2c(=O)oc3ccc(C)cc3c21
→ -8	-10	-9	4	15	-7.2	5446
- CC(C)CNS(=O)(=O)c1ccc(S(=O)(=O)N2CCC3(CC2)OCCO3)cc1
→ -24	5	-3	-2	-5	11	6776
- N#Cc1c(-c2ccccc2Cl)noc1/C=C/Nc1ccc(C(=O)O)cc1
→ -18	42	12	2	5	6.7	2455
- COc1ccc(CNC(=O)CN2C(=O)NC(C)(c3cccc(Br)c3)C2=O)cc1 (stereo unspecified)
→ -13	7	0	3	2	-2.0	3901
- C=CCn1c(O)c(C(CC)=NCCN2CCN(C(=S)NC)CC2)c(=O)[nH]c1=O
→ -33	2	2	-2	6	1.9	3701
- O=c1c(C(c2ccccc2)c2c(O)nc3n(c2=O)CCS3)c(O)nc2n1CCS2
→ -11	1	13	2	-1	2.5	2224
- CC(C)(C)C(=O)NCCN1CCN(C(=O)C(C)(C)C)CC1
→ 3	-6	-25	2	3	-2.3	3984
- C/C(=N/NC(=O)CNC(=O)CCc1ccccc1)c1ccc(Cl)c(Cl)c1
→ -13	.	3	.	.	.	5994

# (continued)
# Every second line gives: PrP 5UTR inh	Sa ugtP lethal	BJeLR viability	Mtb hypoxia rep	Mtb hypoxia rep growth	RN4220 kill	Autofluor counter
- CC(C)n1c(NCc2cc(Cl)ccc2O)nc2ccccc21
→ -20	-16	-5	21	21	-25	6473
- Cc1cc(OCC(=O)Nc2ccc3c(c2)OCCO3)ccc1Cl
→ -17	-10	-3	7	3	-0.9	7953
- Cc1ccc(-n2c(SCC(=O)N3CCOCC3)nnc2-c2ccncc2)cc1
→ 2	13	-14	14	-2	5.1	7996
- CCOC(=O)CC1CCCCN1C(=O)c1ccc2nc(CCOC)oc2c1 (stereo unspecified)
→ -14	4	-6	6	8	2.2	5774
- O=C(Nc1ccc(F)cc1)N1CCN(c2ncccn2)CC1
→ -31	0	-4	10	6	3.7	2047
- COc1cc(OC)c(NC(=O)CN(C)S(=O)(=O)c2ccc3[nH]c(=O)oc3c2)cc1Cl
→ -2	4	3	2	4	3.1	4505
- CCOC(=O)Cc1csc(NC(=O)C(CC(C)C)NC(=O)C2CCCCC2)n1 (stereo unspecified)
→ -10	-2	-4	-8	-6	1.7	4969
- COc1ccccc1NC(=O)c1cccs1
→ -10	1	-4	11	1	6.2	16647*
- COc1ccc(NS(=O)(=O)c2ccc(N3CCCC3)c(NC(=S)Nc3cccc(C)c3C)c2)cc1
→ -17	2	-1	-8	5	1.4	8760
- O=C(COC(=O)C1CCN(C(=O)c2ccc(Cl)cc2)CC1)Nc1ccccc1F
→ -12	3	.	25	35	1.0	3888
- COc1ccc(-n2c(N)c(C(=O)NCC3CCCO3)c3nc4ccccc4nc32)c(OC)c1 (stereo unspecified)
→ -9	-3	0	-8	-1	0.8	9143
- Cc1ccccc1-n1ncc2c1CC(C)(C)CC2NC(=O)CCN1CCCCC1=O (stereo unspecified)
→ -6	2	-1	-4	-1	4.0	4088
- COc1ccc(OC)c(C=NNC(=O)c2ccc(=O)[nH]n2)c1
→ .	-1	.	0	14	-1.0	.
- Cc1ccc(C(=O)Nn2c(O)c(C=C3N=c4ccccc4=N3)sc2=S)cc1
→ .	-3	4	5	9	11	6339
- CCc1cc(Cn2nc(-c3ccccc3C)cc2C(=O)O)on1
→ -13	-2	.	6	9	5.6	3896

# The list goes on:
# Every second line gives: PrP 5UTR inh	Sa ugtP lethal	BJeLR viability	Mtb hypoxia rep	Mtb hypoxia rep growth	RN4220 kill	Autofluor counter
- Cc1cc(C(F)(F)F)c2c(=O)[nH]c(=O)n(Cc3ccccc3)c2n1
→ 0	1	1	1	9	-1.5	3390
- CCOC(=O)Nc1nnc(-c2ccc(OC)c(OC)c2)s1
→ -7	-5	-1	.	.	1.4	2092
- CC(C)(C)c1ccc(C(=O)NC(=S)Nn2cnnc2)cc1
→ -6	-1	-3	-7	1	-1.9	9113
- Cc1onc(-c2ccccc2)c1C(=O)Nc1nnc(COc2ccc(Cl)cc2)s1
→ -1	7	2	.	.	11	2810
- O=C(c1cc(-c2cccs2)on1)N1CCOCC1
→ -56	0	4	11	7	1.1	21693*
- O=C(NC1CCCCC1)C1CCN(S(=O)(=O)c2cccc3nsnc23)CC1
→ -27	2	-10	3	9	5.8	10913
- O=C(O)C(Cc1ccccc1)n1cccc1 (stereo unspecified)
→ -16	-5	2	.	.	-1.5	2836
- O=S(=O)(NCc1ccccc1Cl)c1cnc[nH]1
→ -8	8	1	.	.	3.1	4258
- CCOc1cc(C(c2c(C)[nH][nH]c2=O)c2c(C)[nH][nH]c2=O)ccc1OCc1ccc([N+](=O)[O-])cc1
→ 6	-7	13	-2	8	-2.5	22205*
- O=C(NN=Cc1cccnc1)c1ccc(Cn2cc([N+](=O)[O-])cn2)o1
→ .	2	.	4	14	0.7	.
- Cc1cc2ccccc2n1CCNC(=O)C1CC1
→ -10	16	-2	-2	4	19	3417
- COc1ccccc1N(CCC#N)C(=O)CSc1nnc2ccccn12
→ -4	3	.	24	5	-0.4	?
- Cc1ccc(S(=O)(=O)Nc2ccc3[nH]c(=O)[nH]c3c2)c(C)c1
→ -27	2	-4	0	-5	2.4	2099
- CCCCN1C(=N)N(C(C)CN2CCCC2CN2C(N)=NCC2Cc2ccccc2)CC1Cc1ccccc1 (stereo unspecified)
→ .	-29	.	22	25	-1.5	.
- COC(=O)C1C(=O)C2=C(CC1C)NC(C)=C(C(=O)OCCOc1ccccc1)C2c1ccc(C)o1 (stereo unspecified)
→ -21	0	-11	-9	2	0.4	9849

# Other records follow:
# Every second line gives: PrP 5UTR inh	Sa ugtP lethal	BJeLR viability	Mtb hypoxia rep	Mtb hypoxia rep growth	RN4220 kill	Autofluor counter
- COc1ccc(C(=O)NCC(=O)N=Nc2c(O)n(C)c3ccccc23)cc1OC
→ -35	6	-12	-2	7	2.7	4875
- COc1cccc(C(=O)N2CCN(C(=O)c3ccc(-c4ccccc4)cc3)CC2)c1OC
→ -28	13	2	-1	5	3.8	5131
- O=C1CCC(c2ccccc2)(C2CCN(Cc3ccccc3)CC2)C(=O)N1 (stereo unspecified)
→ -29	.	0	.	.	.	4321
- COc1ccc(C2C3C(=O)N(C(C)(C)C)C(=O)C3[C@]3(C)C(=O)N(c4ccc(C(F)(F)F)cc4)C(=O)N23)cc1 (stereo partly specified)
→ .	-3	.	-6	-14	-8.0	.
- COc1cc(OC)c(C(=O)NN=Cc2ccoc2)cc1OC
→ .	0	.	-3	-5	5.3	.
- CCCCN(CCCC)S(=O)(=O)c1ccc2[nH]c(=O)[nH]c2c1
→ -22	-6	8	-4	6	-0.2	10216
- NC(=O)COc1ccc(=O)n(-c2ccccc2)n1
→ -3	10	-10	0	1	5.7	5666
- Cc1ccccc1C(=O)N1CCCC(CCC(=O)N2CCN(c3ccccn3)CC2)C1 (stereo unspecified)
→ -8	11	0	6	-1	6.8	5846
- COC(=O)C1=C(CN2CCSCC2)NC(=O)NC1c1cc(C)ccc1C (stereo unspecified)
→ -12	1	-2	.	.	0.0	2376
- C=CCn1c(=O)c(CCC(=O)Nc2ccc(N3CCOCC3)cc2)nc2cc(C(F)(F)F)ccc21
→ -10	3	-8	1	5	-0.4	4103
- CC1=[N+](CC(=O)NC(C)(C)C)CCc2ccccc21
→ 3	3	7	9	-1	-0.2	2733
- CCc1ccc(CNC(=O)C2CCCN(c3nn4c(=O)cc(C)nc4s3)C2)cc1 (stereo unspecified)
→ -29	0	-2	7	8	-9.0	6579
- C=CCSC(=C(C#N)C#N)c1cc2c([nH]1)CCCC2
→ 19	.	-1	.	.	.	2444
- COc1ccc(-c2cc(=O)oc3c(C)c(OCC(=O)N[C@@H](Cc4ccc(O)cc4)C(=O)O)ccc23)cc1
→ -27	-5	-3	.	.	3.3	5319
- CCNS(=O)(=O)c1ccc(NC(=O)Nc2cccc(C(F)(F)F)c2)cc1
→ -5	-35	3	-2	4	-3.3	12488

# A different layout for some results above.
smiles | PrP 5UTR inh | Sa ugtP lethal | BJeLR viability | Mtb hypoxia rep | Mtb hypoxia rep growth | RN4220 kill | Autofluor counter
CCCCN(CCCC)S(=O)(=O)c1ccc2[nH]c(=O)[nH]c2c1 | -22 | -6 | 8 | -4 | 6 | -0.2 | 10216
NC(=O)COc1ccc(=O)n(-c2ccccc2)n1 | -3 | 10 | -10 | 0 | 1 | 5.7 | 5666

# Further results.
# Every second line gives: PrP 5UTR inh	Sa ugtP lethal	BJeLR viability	Mtb hypoxia rep	Mtb hypoxia rep growth	RN4220 kill	Autofluor counter
- Cc1ccc(C(=O)Oc2ccc(Br)cc2C(=S)N2CCOCC2)cc1
→ -27	5	-1	14	3	6.0	4972
- CCOc1cc(CNC(C)C)c(Cl)cc1OCC(=O)NCCc1ccccc1
→ -10	-3	5	19	5	-9.9	3259
- C#CCOCCOCCOCCNc1nc(N2CCOCC2)nc(N2CCN(C(=O)C(CCC(=O)O)n3cc(C(N)C(C)CC)nn3)CC2)n1 (stereo unspecified)
→ .	3	.	22	10	6.8	.
- O=C(NN=Cc1ccc(-c2cccc(C(F)(F)F)c2)o1)c1ccccc1Br
→ .	90*	.	6	-4	11	.
